KCNQ2 enhance = potentiators of rat KCNQ2 potassium channel. CHO-K1 KCNQ2, FluxOR thallium flux fluorescence; stronger effect = higher value. B-score at 10 µM. 0.54% of 310,000 active. AID 2239;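 active = fluorescence ratio B-score at least 3 SD of library B-scores, with initial fluorescence B-score within 3 SD, cut at about 5.3 in these data; same plate scores as AID 2156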;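 also: B-score of peak minus minimum over baseline fluorescence ratio after K+ and Tl+ stimulus; positive B-score means potentiation of KCNQ2 with more thallium influx and brighter signal; only the inactives scoring about 0 or higher are listed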
Target sequence (O88943 whole entry, looked up): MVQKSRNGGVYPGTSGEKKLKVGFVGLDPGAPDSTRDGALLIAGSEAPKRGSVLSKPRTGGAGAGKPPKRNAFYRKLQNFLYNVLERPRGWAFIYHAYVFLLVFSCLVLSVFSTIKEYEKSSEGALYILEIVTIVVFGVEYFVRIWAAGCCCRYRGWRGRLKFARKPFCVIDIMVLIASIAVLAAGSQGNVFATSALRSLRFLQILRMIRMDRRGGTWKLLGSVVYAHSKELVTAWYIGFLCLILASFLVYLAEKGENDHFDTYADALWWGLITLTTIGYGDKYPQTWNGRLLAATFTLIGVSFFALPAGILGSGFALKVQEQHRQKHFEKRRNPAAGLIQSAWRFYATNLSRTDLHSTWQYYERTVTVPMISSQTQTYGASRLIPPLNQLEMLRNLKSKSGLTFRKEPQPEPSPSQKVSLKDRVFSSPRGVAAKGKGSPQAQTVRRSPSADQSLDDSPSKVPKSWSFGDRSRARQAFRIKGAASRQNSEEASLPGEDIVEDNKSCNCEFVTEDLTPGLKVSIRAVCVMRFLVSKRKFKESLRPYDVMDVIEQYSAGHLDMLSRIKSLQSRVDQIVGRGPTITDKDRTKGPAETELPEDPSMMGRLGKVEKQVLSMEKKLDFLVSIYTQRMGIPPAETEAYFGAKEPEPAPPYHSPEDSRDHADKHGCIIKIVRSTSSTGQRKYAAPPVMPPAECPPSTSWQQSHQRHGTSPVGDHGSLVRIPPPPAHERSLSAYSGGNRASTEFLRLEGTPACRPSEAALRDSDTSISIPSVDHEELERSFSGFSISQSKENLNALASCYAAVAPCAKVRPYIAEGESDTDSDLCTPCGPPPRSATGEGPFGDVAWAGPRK
KCNQ2 enhance baseline = also measured in KCNQ2 enhance; calls as there; B-score; compound at 10 µM; measured here: initial fluorescence intensity artifact check;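 brightness before thallium and not channel activity; 0 = typical well and far values either way flag optical interference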
* hit, by the source's call. Only part of the results is shown; count on the stated rates, not on these rows.

Sample of the layout:
KCNQ2 enhance,KCNQ2 enhance baseline,smiles
0.65,-1.86,CCOC(=O)c1c[nH]c2c(Cl)ccc(Cl)c2c1=O
0.8,-0.92,CO/N=C(\c1nonc1N)N1CCN(c2ccc([N+](=O)[O-])cc2Cl)CC1

Results, repeating the preview:
KCNQ2 enhance,KCNQ2 enhance baseline,smiles
0.65,-1.86,CCOC(=O)c1c[nH]c2c(Cl)ccc(Cl)c2c1=O
0.8,-0.92,CO/N=C(\c1nonc1N)N1CCN(c2ccc([N+](=O)[O-])cc2Cl)CC1
0.61,-0.67,NS(=O)(=O)c1ccc(NNC(=O)c2ccc(F)cc2F)cc1
0.66,0.02,COc1cccc(CC(=O)OC(C)C(=O)NCc2ccc3c(c2)OCO3)c1 (configuration not stated)
0.99,0.09,Clc1ccc(-c2nnc3n2CCCC3)cc1
0.2,0.68,On1nnc2ccc3ccccc3c21
1.99,0,CCN(CC)CCn1c(NCc2ccc(C)o2)nc2ccccc21
0.46,0.47,Cc1cc(-c2ccc(Cl)cc2Cl)c(C#N)c(=O)[nH]1
0.17,1.23,COCCCn1c(=S)[nH]c2ccc(N3CCOCC3)cc2c1=O
1.55,-1.06,COc1ccc(Cc2nc3ccc(C(=O)NCCSC)cc3o2)cc1
2.32,-0.69,O=C(O)c1c(C(=O)N2N=C3/C(=C/c4ccccc4)CCCC3C2c2ccccc2)cccc1[N+](=O)[O-] (configuration not stated)
1.59,0.82,CC(=O)NC(Cc1ccc(C)cc1)C(=O)NC1CCN(C(=O)c2ccc([N+](=O)[O-])cc2)CC1 (configuration not stated)
0.03,-0.94,COc1cc(C(=O)NCc2cn3ccsc3n2)cc(OC)c1OC
0.39,1.54,COC(=O)CSc1nnc2n1C(C)(C)Cc1ccccc1-2
2.23,-0.53,CN(C)c1cc[n+](/C(C(=S)Nc2ccc(SC(F)F)cc2)=C(/[O-])c2ccccc2)cc1

KCNQ2 enhance,KCNQ2 enhance baseline,smiles
1.99,-0.36,COC(=O)c1cccc(NC(=O)CSc2nnc(-c3ccco3)o2)c1
0.36,-2.8,COC(=O)c1cccc(NC(=O)/C(=C\c2ccccc2)NC(=O)c2ccccc2Cl)c1
0.16,0.36,COc1ccc(NC(=O)c2ccc(-c3ccc(C)c4ccccc34)o2)cc1
0.03,0.85,Nn1c(SCc2ccccc2)nc2c(cnn2-c2ccccc2)c1=O
1.82,-0.1,CC(C)C[C@H](NC(=O)C1CC(=O)N(c2ccc3c(c2)OCCO3)C1)C(=O)N1CCCCC1 (some centres not stated)
0.93,0.31,CCCCN(C)C(=O)C(Cc1ccccc1)NS(=O)(=O)c1ccc2c(c1)CCC(=O)N2 (configuration not stated)
0.36,0.24,COc1ccc(NC(=O)CSc2nc(SC)ns2)c(OC)c1
0.22,-1.47,O=C(NNC(=O)c1ccccc1O)c1ccc(NS(=O)(=O)c2ccc(F)cc2)cc1
1.26,0.44,COc1ccc(OC)c(C2C(C(=O)c3cc4ccccc4o3)=C(O)C(=O)N2c2cc(C)on2)c1 (configuration not stated)
0.08,2.29,O=C(/C=C/c1ccc(F)cc1)NNC(=O)CCN1CCN(Cc2ccccc2)CC1
0.45,-0.33,COc1ccc([N+](=O)[O-])cc1C(=O)Nc1ccc(Cc2ccncc2)cc1
1.93,-1.07,N#CCC(=O)Nc1ccc(C(=O)OCC(=O)C23CC4CC(CC(C4)C2)C3)cc1
1.42,-2.17,O=C(Nc1ccc(-n2cnnn2)cc1)c1cn2ccccc2n1
6.22*,1.8*,CCCCCC(O)(c1ccc(OC)cc1)C(CN1CCOCC1)c1ccccc1 (configuration not stated)
0.15,0.94,CC(C)(C)c1ccc(C(=O)Nc2ccc(Cl)cc2)cc1

KCNQ2 enhance,KCNQ2 enhance baseline,smiles
0.38,-1.07,COC(=O)c1ccc(CSc2nnc(NC(=O)c3cc4c(s3)CCCC4)s2)cc1
0.31,-0.29,Cc1cc(C(=O)NCCCc2ccccc2)no1
0.02,-0.01,COc1ccc(N(Cc2cc3cc(OC)ccc3[nH]c2=O)S(C)(=O)=O)cc1
0.66,0.21,Cc1nc(C(=O)N2CCCC(Nc3ccc(C)c(C)c3)C2)cs1 (configuration not stated)
0.2,0.04,O=C(NC12CC3CC(CC(C3)C1)C2)N1CCC(O)CC1
0.95,0.72,O=C(NC(=S)NNC(=O)c1cc2ccccc2cc1O)c1ccco1
1.8,0.39,C/C=C/c1ccc(OCC(=O)OCC(=O)Nc2c(C)nn(-c3ccccc3)c2C)c(OC)c1
0.2,1.94,Cc1cccc(N2C(=S)NC3c4cc(Cl)ccc4OC2(C)C3C(=O)N(C)C)c1 (configuration not stated)
0.65,1.29,CCn1c(SCC(=O)Nc2cccc(C)n2)nnc1-c1ccco1
1.36,1.02,CNc1cncc(C(=O)O)c1
0.97,-0.75,O=C(CN(C(=O)CCC(=O)Nc1nccs1)c1ccc2c(c1)OCO2)NCC1CCCO1 (configuration not stated)
0.88,-0.56,CCOCCCNC(=S)N1CCN(Cc2ccc3c(c2)OCO3)CC1
0.99,-0.07,O=C(NNC(=O)c1ccc2nonc2c1)Nc1ccc(Cl)cc1
1.46,-2.1,O=C(NCc1nc2ccccc2[nH]1)C1CCCCC1
1.34,-1.12,N#C/C(=C\c1ccco1)C(=O)Nc1cccc2ncccc12

KCNQ2 enhance,KCNQ2 enhance baseline,smiles
0.32,0.58,N/C(Cc1cccs1)=N\OC(=O)COc1ccccc1
1.52,0.84,CCOc1ccc2nc(SCc3cccc(C)c3)nc(C)c2c1
0.96,1.83,NS(=O)(=O)c1ccc(NC(=O)CCC2CCCCC2)cc1
0.04,-0.19,CCOC(=O)C(NC(=O)CC)(N1CCc2ccccc2C1)C(F)(F)F (configuration not stated)
1.91,0.3,Nc1cc(C(F)(F)F)ccc1Nc1ccccc1
0.09,1.64,COc1ccc(C(=O)OCC(=O)c2ccc(Cl)s2)c(OC)c1OC
1.04,-2.01,O=C(O)CN1C(=O)/C(=C/C=C/c2ccccc2)SC1=S
0.3,2.45,COc1ccccc1C(=O)Nc1c(C)n(C)n(-c2ccccc2)c1=O
0.55,0.78,CN(C)c1cc(=O)n2c(n1)SCCC2
0.89,0.47,Cn1c(SCC(=O)Nc2ccccc2F)nnc1-c1cc2ccccc2o1
5,-1.39,COc1ccc(CN2CCc3ccc(NC(=O)c4ccncc4)cc3C2)c(F)c1
1.22,-0.04,COc1ccccc1NC(=O)C1CCCN(c2cc(C)nc3ncnn23)C1 (configuration not stated)
0.5,-0.07,CC1(C(=O)N2CCN(c3ccccc3)CC2)CC1(Cl)Cl (configuration not stated)
0.1,0.73,CCCC/C=C/C(NC(=O)c1ccc(-c2ccccc2)cc1)c1ccccc1 (configuration not stated)
0.41,0,CCOC(=O)N1CCN(C(=O)C2CCN(S(=O)(=O)c3ccc(Br)s3)CC2)CC1

Four of these compounds in another layout:
SMILES | KCNQ2 enhance | KCNQ2 enhance baseline
COc1ccccc1C(=O)Nc1c(C)n(C)n(-c2ccccc2)c1=O | 0.3 | 2.45
COc1ccc(C(=O)OCC(=O)c2ccc(Cl)s2)c(OC)c1OC | 0.09 | 1.64
CCOc1ccc2nc(SCc3cccc(C)c3)nc(C)c2c1 | 1.52 | 0.84
CC1(C(=O)N2CCN(c3ccccc3)CC2)CC1(Cl)Cl (configuration not stated) | 0.5 | -0.07

Next part.
KCNQ2 enhance,KCNQ2 enhance baseline,smiles
0.11,-1.14,CCN(C(=O)CCN1C(=O)c2ccccc2S1(=O)=O)c1ccccc1
0.01,1.46,COc1ccccc1NS(=O)(=O)c1cc(Cl)ccc1OC
0.09,-1.59,Cc1c(C(=O)Oc2cccc3cccnc23)cccc1[N+](=O)[O-]
0.12,0.6,O=C(CCC(=O)Nc1ccccc1Cl)NNC(=O)c1ccco1
0.85,0.68,CC(C)OC(=O)C1C(=O)CC(C)(O)C(C(=O)OC(C)C)C1c1ccc([N+](=O)[O-])cc1 (configuration not stated)
4.46,0.34,O=C(Nc1cccc(F)c1)Nc1ccc2c(c1)OCO2
0.63,-0.07,COc1cccc(C2=NOC(C(=O)Nc3ccc(OC)c(OC)c3)C2)c1 (configuration not stated)
0.02,0.88,CS(=O)(=O)c1cccc(S(=O)(=O)N2CCN(c3ccccn3)CC2)c1
1.55,-1.65,COn1c(SCc2cccnc2)nc2ccccc2c1=O
3.46,1.14,c1ccc(COc2ccc(Nc3ncnc4nc[nH]c34)cc2)cc1
0.26,0.53,CSc1nsc(SC)c1C(N)=O
0.21,1.76,CCCOc1ccc(C(=O)NCC2OCCc3ccccc32)cc1OC (configuration not stated)
0.41,-0.08,O=C(NCCOC(=O)c1ccc(C(=O)OCCNC(=O)c2ccccc2)o1)c1ccccc1
0.25,0.26,CC(=O)c1sc(N/N=C\c2ccc(C)cc2)nc1C
1.1,0.92,COc1ccc(-n2nc(C(=O)NCC(=O)N3CCCC3)c3ccccc3c2=O)cc1

KCNQ2 enhance,KCNQ2 enhance baseline,smiles
0.77,-2.23,CCc1ccccc1NC(=O)CN(C)C(=O)CSc1nnc(Nc2cccc(C)c2)s1
0.01,-0.47,CCC/C=C1/CCCOC(C(=O)NCCNCCO)(C(F)(F)F)C1 (configuration not stated)
0.67,0.66,COc1cc(C(=O)NNC(=O)C2CC=CCC2C(=O)O)cc(OC)c1OC (configuration not stated)
0.06,-0.37,Cc1ccc(CN2CCN(Cc3cnn(-c4ccc(Cl)cc4)c3)CC2CCO)o1 (configuration not stated)
1.59,0.61,COc1cccc(COCC(O)CN2CCC(C(N)=O)CC2)c1 (configuration not stated)
0.03,0.02,COc1ccc(C2C(C(=O)Nc3cc(OC)c(OC)c(OC)c3)c3ccccc3C(=O)N2C)cc1OC (configuration not stated)
1.25,0.04,COc1ccc(Cl)cc1C(=O)Nc1cccc(-c2ccc3nncn3n2)c1
0.48,0.11,CSc1nnc(-c2ccncc2)n1CCCN1CCCC1=O
0.73,-1.84,Cc1ccc(C)c2[nH]c(=O)c(C(c3nnnn3Cc3ccccc3)N3CCc4ccccc4C3)cc12 (configuration not stated)
0.29,-1.41,COc1cccc(C(=O)N2CCOCC2)c1
8.19*,0.18*,Cc1cccc(C(=O)NC(=S)NNC(=O)c2cccs2)c1
0.75,1.46,CC(C)CC(=O)Nc1ccc2nn(-c3ccccc3)nc2c1
0.1,0.5,CCc1cc(C(=O)c2ccc(OC)cc2)c(NC(=O)COCC(=O)O)s1
1.04,0.06,Cc1ccccc1NC(=O)c1ccccc1NC(=O)c1ccccc1F
0.38,0.23,CCc1nnc(NC(=O)Nc2ccc(Cl)cc2)s1

KCNQ2 enhance,KCNQ2 enhance baseline,smiles
0.83,-0.1,CCCc1cc(Nc2ccccc2OCC)n2ncnc2n1
0.3,-0.05,COc1cc(NC(=O)c2ccc(OC)c([N+](=O)[O-])c2)ccc1NC(=O)c1cccs1
0.02,-0.06,Cc1ccc(P(C)(=O)c2ccc(C)cc2)cc1
0.78,-0.62,COc1ccc(NC(=O)c2ccc(-n3cncn3)c([N+](=O)[O-])c2)cc1OC
0.2,0.02,O=C1C2CCCN2C(c2ccc(Br)cc2)N1c1ccc(F)cc1 (configuration not stated)
0.17,-2.26,C#CCn1ccc(O)c(Cc2ccccc2)c1=O
1.36,-0.62,CCN(C(=O)CSc1ncnc2c1cnn2-c1ccccc1)C1CCS(=O)(=O)C1 (configuration not stated)
1.48,-2.25,O=C(Nc1ccc(N2CCOCC2)cc1)C1CC1
0.46,1.52,CC1(C)Oc2ccc3ccc(=O)oc3c2-c2cn[nH]c21
1.12,-0.85,OCCOCCn1c(C(CO)Nc2nc(-c3cccc(Br)c3)cs2)nc2ccccc21 (configuration not stated)
1,-0.09,CC1CCN(CC(C)CNC(=O)c2cc(-c3ccccn3)nc3ccccc23)CC1 (configuration not stated)
0.44,0.19,CCc1nnc(NS(=O)(=O)c2ccc(N=Cc3c(C)[nH]n(-c4cccc(Cl)c4)c3=O)cc2)s1
0.02,0.24,O=S(=O)(NCc1ccccc1)c1cccc2nonc12
1.26,-0.17,CC(O)c1cccc(NC(=O)CC(c2ccccc2)c2ccccc2)c1 (configuration not stated)
0.04,-0.01,COc1cccc(C(=O)NCCS(=O)(=O)N2CC(C)CC(C)C2)c1 (configuration not stated)

KCNQ2 enhance,KCNQ2 enhance baseline,smiles
1.24,-0.41,O=C(COc1ccc(Cl)cc1)Nc1ccc(C(=O)NCc2cccnc2)cc1
1.36,0.56,CCOC(=O)c1oc2ccccc2c1CSc1nnnn1-c1ccc(OC)cc1
0.07,-1.9,CC1(NC(=O)c2cccc(S(=O)(=O)N3CCN(c4ccccc4)CC3)c2)CCS(=O)(=O)C1 (configuration not stated)
1.18,0.04,Fc1ccc(/C=N/Nc2ccccn2)cc1
0.18,0.44,Cc1ccc(NC(=O)c2ccc(-n3cccn3)nc2)cc1
0.01,0.42,CCOc1ccccc1NC(=O)CSc1nnc(CNC(=O)c2cc(OC)c(OC)c(OC)c2)o1
0.48,-1.24,Cc1ccc(-c2nc3ccccn3c2C=O)cc1
0.42,-0.39,COc1ccc(C(=O)n2nc(-c3ccc(OC)cc3)nc2N)cc1
0.58,0.92,Cc1ccccc1CSCc1nc(N)nc(Nc2ccccc2C)n1
1.94,-2.95,CCCc1nnc(NC(=O)CCC(=O)N2CCN(Cc3ccccc3)CC2)s1
0.9,-1.65,Cc1sc2nc(SCc3nc4ccccc4[nH]3)n(Cc3ccco3)c(=O)c2c1C
1.06,1.82,COc1ccc(OCC(=O)Nc2ccc(N3CCN(C(=O)c4ccccc4)CC3)c(Cl)c2)cc1
0.81,1.3,CC(C)(C)c1ccc(C(=O)NCc2cccnc2)cc1
5.16,0.2,CCOc1cc(/C=C2/C(=N)N3C(=NC2=O)SN=C3S(C)(=O)=O)ccc1OS(=O)(=O)c1ccccc1

Entries of single compounds, looked up by structure. Screens in order: KCNQ2 enhance	KCNQ2 enhance baseline
Results for CC(C)OC(=O)C1C(=O)CC(C)(O)C(C(=O)OC(C)C)C1c1ccc([N+](=O)[O-])cc1 (configuration not stated) → 0.85	0.68
Results for CC(C)CC(=O)Nc1ccc2nn(-c3ccccc3)nc2c1 → 0.75	1.46

Screening results deposited in PubChem by Johns Hopkins Ion Channel Center.
